ALR inh: blocks human ALR sulfhydryl oxidase activity; P55789; purified ALR, DTT oxidation, H2O2 HRP-luminol luminescence; inhibition, % (concentration not given with the values); 290,000 compounds, 3.8% hits; AID 485317;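 active means mean and each replicate at 75% or more; inconclusive means only one of the two met; inactive means neither met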;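 further: stock transfer was 7.5 nL into about 7.5 µL; 0% = neutral wells and 100% = wells with inactivated enzyme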
Target sequence (P55789 whole entry, looked up): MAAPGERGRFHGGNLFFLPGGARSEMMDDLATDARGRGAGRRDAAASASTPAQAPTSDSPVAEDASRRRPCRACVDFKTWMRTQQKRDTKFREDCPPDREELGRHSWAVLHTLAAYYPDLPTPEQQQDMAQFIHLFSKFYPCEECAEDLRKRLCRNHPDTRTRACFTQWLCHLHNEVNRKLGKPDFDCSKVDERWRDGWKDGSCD
FGF22 binding: binders of recombinant human FGF22 by thermal shift. SYPRO orange fluorescence; percent of sucrose octasulfate shift, DMSO zero. calls only at 9.99 µM. 340,000 compounds, 1.5% hits;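 active means melting point raised past a set limit in the mean and every replicate; inconclusive means no clear call; three in four hits are not shown here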
Target sequence (Q9HCT0 whole entry, looked up): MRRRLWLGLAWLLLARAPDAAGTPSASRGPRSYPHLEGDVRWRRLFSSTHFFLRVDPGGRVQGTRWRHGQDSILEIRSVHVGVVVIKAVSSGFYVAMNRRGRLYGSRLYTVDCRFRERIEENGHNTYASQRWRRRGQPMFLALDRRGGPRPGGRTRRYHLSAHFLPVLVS
T cruzi repl: blocks replication of Trypanosoma cruzi; T. cruzi beta-gal in NIH3T3, luminescence, 90 h; inhibition, % (no concentration beside the values); 300,000 compounds, 1.4% hits; AID 1885;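 active means mean inhibition across valid replicates above about 55%, limit read from the data; inconclusive means mean below that limit but half or more replicates reach it; inactive means mean below it, under half of replicates reach it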;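 further: signal also drops with host cell toxicity which is not excluded here; 0% = plate median of DMSO wells and 100% = zero luminescence signal; higher percent means less beta-gal luminescence so fewer parasites; stock transfer was 50 nL into about 50 µL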
Calb FLC: affects C. albicans growth with fluconazole | AID 1979 | C. albicans CaCi-2 (fluconazole-resistant clinical isolate) + fluconazole, Alamar Blue growth, 48 h | 300,000 compounds, 0.57% hits | growth inhibition, % (test concentration not listed);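 active means most replicates above 75%; inconclusive means exactly half above 75%; inactive means most below 75%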;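 further: all wells also contain fluconazole at 8 µg/ml as a sub-toxic cotreatment; 0% = median of DMSO wells and 100% = median of geldanamycin control wells; wells of about 8 µL received 7.5 nL stock; the first replicate is given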
Beta apoptosis: blocks beta cell apoptosis; protection from apoptosis, % (concentration not given with the values); INS-1E cytokine-induced death, ATP luminescence, 48 h; percent of positive-control rescue, neutral wells zero; AID 435005; 300,000 compounds, 0.8% hits;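 active means all replicates at 75% or more, or half of them and the mean; inconclusive means half reach 75% but not the mean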;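 further: 0% = cytokine-treated negative control wells and 100% = positive control rescue; higher means more ATP so stronger rescue from cytokine killing; wells of about 40 µL received 100 nL stock; the first replicate is given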
Ecoli rRNA inh: selective bacterial rRNA inhibition in E. coli; GFP signal change (wild-type ribosome), % (no concentration beside the values); AID 720706; E. coli WT GFP vs humanized-ribosome RFP mutants, fluorescence, 24 h; stronger effect = lower value; DMSO median 0, no signal -100; 350,000 compounds, 1.6% hits;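 active means significant combined selectivity score with lowered wild-type GFP, culture density cut under 30%, mutant RFP and density less affected; inactive means any of these conditions unmet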; further: one replicate is shown; some compounds called inactive have numbers as strong as hits
RanGTP-Impb inh: disruptors of Ran-importin-beta complex formation – biochemical, FRET, CFP-Ran, YFP-importin-beta, homogeneous, primary screen; cell-free CFP-Ran/YFP-importin-beta FRET ratio; inhibition, % (no concentration beside the values); 300,000 compounds, 1.1% hits; AID 2216;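 active means most replicates above 15%; inconclusive means exactly half above 15%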;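 further: 0% = DMSO wells and 100% = Ran loaded with GDP instead of GTP; wells of about 40 µL received 100 nL stock; the first replicate is given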
AF4-AF9 inh: blocks AF4 peptide binding to human AF9 | AID 651704 | P42568 | 350,000 compounds, 0.47% hits | inhibition, % at 10 µM | AlphaScreen, biotin-AF4 peptide binding to FLAG-AF9;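 active means every replicate reaching a set inhibition limit, whatever the replicate mean, cut at about 25% in these data; inconclusive means mean inhibition reaches that limit but some replicates miss it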;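 further: 0% = plate neutral control median and 100% = total signal loss; the record names both 10 and 1 µM as test concentration; the first replicate is given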
Target sequence (P42568 whole entry, looked up): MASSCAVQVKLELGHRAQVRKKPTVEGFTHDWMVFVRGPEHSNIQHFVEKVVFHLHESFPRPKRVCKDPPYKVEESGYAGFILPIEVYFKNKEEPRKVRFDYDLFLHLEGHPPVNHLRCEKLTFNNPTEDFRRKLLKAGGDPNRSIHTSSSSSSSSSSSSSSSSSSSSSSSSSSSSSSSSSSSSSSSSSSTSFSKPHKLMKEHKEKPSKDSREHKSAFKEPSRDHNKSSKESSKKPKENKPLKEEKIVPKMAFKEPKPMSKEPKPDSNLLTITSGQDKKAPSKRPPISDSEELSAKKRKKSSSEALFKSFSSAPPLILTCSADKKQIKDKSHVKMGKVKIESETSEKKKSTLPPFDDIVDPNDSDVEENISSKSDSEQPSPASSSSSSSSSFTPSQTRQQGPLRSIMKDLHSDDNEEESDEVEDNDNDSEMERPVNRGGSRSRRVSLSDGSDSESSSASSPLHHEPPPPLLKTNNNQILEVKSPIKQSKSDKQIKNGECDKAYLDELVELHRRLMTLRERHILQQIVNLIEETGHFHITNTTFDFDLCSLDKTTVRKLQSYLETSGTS
Ecoli rRNA inh OD600: also measured in Ecoli rRNA inh; calls as there; OD600 change, %; measured here: OD600 growth;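 optical density of the mix in the first replicate; 0 = DMSO median and -100 = no signal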
Ecoli rRNA inh RFP: also measured in Ecoli rRNA inh; calls as there; RFP signal change, %; measured here: RFP humanized mutant strains;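 first replicate; 0 = DMSO median and -100 = no signal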
Active calls of the source: *; i = inactive; ? = inconclusive; . = no result given. Some of the compounds tested. The share of hits here may be higher or lower than overall.

SMILES	ALR inh	FGF22 binding	T cruzi repl	Calb FLC	Beta apoptosis	Ecoli rRNA inh	Ecoli rRNA inh OD600	Ecoli rRNA inh RFP	RanGTP-Impb inh	AF4-AF9 inh
O=C(Nc1ccccc1Oc1ccccc1)c1cc([N+](=O)[O-])ccc1Cl	.	.	-3	11	-10	.	.	.	-2.6	.
Cc1ccc(N2CC(C(=O)Nc3cccc(F)c3)CC2=O)cc1 (stereo not drawn)	-4	i	-3	21	-3	18	0	3.7	2.1	1.1
N#C/C(C(N)=O)=C1/SC(Cc2ccc(F)cc2)C(=O)N1c1ccccc1 (stereo not drawn)	26	i	-5	-4	-2	-6	5	0.6	1.2	-2.0
O=C1CCCC/C=C\C[C@H](CC(=O)N(CCO)Cc2ccccc2)C(=O)N[C@@H](Cc2ccccc2)CO1	-5	i	.	.	-13	0	10	8.3	.	2.4
Cc1cccc(NC(=S)NC(=O)c2ccco2)n1	2	.	1	16	7	.	.	.	-2.1	.
COC(=O)COc1ccc(S(=O)(=O)NCCC2=CCCCC2)cc1Cl	0	.	0	-23	-6	.	.	.	0.2	.
Cc1cc(C(=O)NNC(=O)c2ccc(C(F)(F)F)cc2)no1	-4	i	-11	-11	-5	5	8	1.4	-0.3	-0.5
O=C(COC(=O)c1cccnc1Cl)NCc1ccc(F)cc1	.	i	.	.	1	4	4	-2.2	.	-2.2
FC(F)(F)c1cnc(NNC(=S)Nc2ccccc2Cl)c(Cl)c1	97*	.	-11	?	112*	.	.	.	-0.8	.
CC1Cc2cc(/C(O)=C3/C(=O)C(=O)N(CCCn4ccnc4)C3c3ccc(F)cc3)ccc2O1 (stereo not drawn)	26	i	-5	-5	-4	4	19	1.5	2.6	1.5
COc1ccc(NC(=S)NCCc2c[nH]c3ccccc23)cc1	-15	.	-2	-3	3	.	.	.	4.7	15
CC(=O)Nc1cc(C(=O)O)ccc1S(=O)(=O)c1ccc(Cl)cc1	-9	.	-1	-6	1	.	.	.	6.7	.
O=C(CSC1CCCCC1)Nc1ccccc1Br	-11	i	10	-4	1	-44	-47	-28	1.9	1.1
CN1CCN(S(=O)(=O)c2ccc3[nH]cc(C(=O)O)c(=O)c3c2)CC1	1	.	-15	3	2	10	14	-1.1	4.5	.
COc1ccc(-n2ncc3c2CC(C)(C)CC3NC(=O)CCc2c(C)noc2C)cc1 (stereo not drawn)	-4	i	4	-4	-1	0	-1	0.6	-0.4	-4.0
CC(=O)Cn1c(CN2CCN(C(=O)c3ccco3)CC2)nc2c1c(=O)n(C)c(=O)n2C	0	i	-4	-5	-7	8	12	0.8	9.2	-2.4
COc1ccc(-c2n[nH]c(=S)n2-c2ccc3c(c2)OCCO3)cc1	91*	.	-13	26	2	.	.	.	0.0	.
CCOc1ccc(S(=O)(=O)Nc2ccc(C(=O)N3CCCC3)cc2)cc1C(N)=O	-1	i	-8	9	-5	26	6	4.1	1.1	-0.7
CCc1ccc(OCC(=O)N2CCN(c3ccccc3F)CC2)cc1	-1	i	4	-3	-1	-8	-13	3.5	0.3	-1.1
O=C(COC(=O)C12CC3CC(CC(C3)C1)C2)NC12CC3CC(CC(C3)C1)C2	-1	.	-4	-13	-2	.	.	.	-0.3	.
CN(C)/C=C(\C#N)C(=O)Nc1ccc(F)c(Cl)c1	1	i	-12	1	0	15	9	4.1	0.8	-0.7
COc1ccc(Cl)cc1NS(=O)(=O)c1cccc(C(=O)NCC(c2ccco2)N2CCCC2)c1 (stereo not drawn)	4	i	37	-7	-1	-1	-4	1.2	1.1	0.9
O=C(CCCC1=NS(=O)(=O)c2ccccc2N1)NCCc1ccc(Cl)cc1	2	i	13	16	-3	-3	-6	0.5	3.7	0.0
CN1CCN(S(=O)(=O)c2cccc(C(=O)Nc3ccccc3N3CCCCC3)c2)CC1	17	.	7	3	6	8	4	-2.3	.	7.7
COc1ccc2cc(CN(Cc3ccco3)C(=S)NCC3CCCO3)c(=O)[nH]c2c1 (stereo not drawn)	1	i	-18	1	-4	-2	7	0.3	0.8	-6.2
Continuation.
SMILES	ALR inh	FGF22 binding	T cruzi repl	Calb FLC	Beta apoptosis	Ecoli rRNA inh	Ecoli rRNA inh OD600	Ecoli rRNA inh RFP	RanGTP-Impb inh	AF4-AF9 inh
COc1ccc(C(=O)OCC(=O)N(C)C2CCS(=O)(=O)C2)cc1S(=O)(=O)N(C)Cc1ccccc1 (stereo not drawn)	-1	i	-8	-4	-7	9	1	0.7	.	1.1
Cc1cccc(Sc2c(C=O)c3ccccc3n2C)c1	-18	.	3	31	-8	.	.	.	4.0	.
O=C(Nc1ccccc1C(=O)O)/C(=C/c1ccc([N+](=O)[O-])cc1)NC(=O)c1ccc(Br)o1	65	i	7	6	-2	12	8	1.6	2.6	-2.7
COc1cccc(CN(CC2CCCO2)S(=O)(=O)c2ccc(-n3cnnn3)c(OC)c2)c1 (stereo not drawn)	1	i	5	6	-11	-29	-25	-4.1	0.6	0.0
O=C(c1ccc(F)cc1)C1CCN(C(=O)NC2CCCCC2)CC1	3	.	2	-3	2	.	.	.	2.5	.
CCOCCCNC(=S)N(Cc1ccco1)Cc1cc2cc3c(cc2[nH]c1=O)OCCO3	6	i	7	-6	-12	11	2	0.7	-2.0	5.0
Cc1c(OCC(=O)NCCCn2ccnc2)ccc2c3c(c(=O)oc12)CCC3	-4	i	1	-5	5	3	9	0.5	0.0	-0.1
COc1ccc(N(C)S(=O)(=O)c2cccc3cccnc23)c(OC)c1	-6	i	-3	-1	-10	-16	-12	1.9	-5.0	-4.0
COc1ccc(N=CC2=C(O)CC(C)(C)CC2=O)cc1	8	.	-7	-19	-4	.	.	.	-1.4	.
COc1ccc(C)cc1Nc1n[n+](C)c(-c2ccc(O)cc2O)s1	9	i	-8	-8	-3	11	0	-9.8	-1.6	-1.1
O=C1C2CCCN2C(=O)N1CCCCN1CCN(c2cccc(C(F)(F)F)c2)CC1 (stereo not drawn)	-5	.	6	-4	3	-5	-2	-2.8	-5.5	1.3
CCc1ccc(NC(=O)CSc2nnc(CNC(=O)c3ccc(OC)cc3)o2)cc1	-70	i	33	-11	-4	0	2	-0.6	0.5	-0.4
CCOC(=O)c1nnn(-c2nonc2N)c1-c1ccc(OC)cc1	-3	.	6	-28	-10	.	.	.	-2.4	.
COc1ccc(-n2nc(C(=O)NCC(=O)Nc3cc(OC)c(OC)c(OC)c3)c3ccccc3c2=O)cc1OC	4	i	-6	0	-5	6	16	-0.1	1.9	-2.5
CC1CCN(S(=O)(=O)c2cccc(-c3cn4cc(Cl)ccc4n3)c2)CC1	-18	.	26	23	-7	10	11	6.2	-0.3	.
O=C(CC1SC(N2CCCC2)=NC1=O)Nc1ccc(C(=O)N2CCCC(C(F)(F)F)C2)cc1 (stereo not drawn)	-7	i	1	.	-3	11	7	-0.9	-1.6	-14
CC(NC(=O)/C=C/c1ccccc1[N+](=O)[O-])C1CC2CCC1C2 (stereo not drawn)	4	i	20	-5	1	-2	2	-1.5	-0.1	-0.7
Cn1c(Cc2cccs2)nnc1SC/C=C/c1ccccc1	0	.	21	14	-5	.	.	.	3.9	.
COc1ccc(C(=O)Nc2ccc(S(=O)(=O)N3CCCCC3)cc2)cc1	-13	.	2	-20	6	.	.	.	-5.7	.
COC(=O)c1cc(OC)c(OC)cc1NC(=O)Cc1cccs1	-15	i	-1	-4	-1	6	6	2.9	0.6	-3.7
COc1ccc(/C=N/N(c2ccccc2)c2ccccc2)cc1O	31	i	3	7	7	-25	-30	6.0	-1.2	6.3
COc1ccc2c(c1)c(C(=O)O)c(C)n2-c1ccccc1	0	i	13	1	-4	-15	-12	-9.0	7.2	0.4
Cc1cccc(Nc2nc(N)nc(CSC(=S)N3CCOCC3)n2)c1	-4	.	15	4	-7	.	.	.	-2.3	.
O=C(CN1C(=O)NC2(CCCC2)C1=O)N1CCN(Cc2ccccc2)CC1	-4	i	-12	-1	-10	1	8	-3.5	1.4	-1.8
Cc1ccc(-n2nc3c(c2NC(=O)c2ccco2)CS(=O)(=O)C3)c(C)c1	2	i	16	-2	1	0	5	-1.9	-1.7	-2.0
Carrying on.
SMILES	ALR inh	FGF22 binding	T cruzi repl	Calb FLC	Beta apoptosis	Ecoli rRNA inh	Ecoli rRNA inh OD600	Ecoli rRNA inh RFP	RanGTP-Impb inh	AF4-AF9 inh
COC(=O)CNC(=O)c1ccc(NS(=O)(=O)c2cc([N+](=O)[O-])ccc2Cl)cc1	-15	i	-17	-5	-1	10	7	-2.1	4.1	0.2
Clc1ccc(CSc2ncn[nH]2)cc1	-6	.	-18	2	-13	8	-16	0.2	3.4	.
CC(=O)c1sc(NC(=O)C2CCN(c3ncnc4sc(C)c(C)c34)CC2)nc1-c1ccccc1	-7	i	10	1	.	-1	-14	0.0	2.0	0.5
Cc1nn(C)c(C)c1Nc1ccc(N2C(=O)C3C4C=CC(C4)C3C2=O)cc1[N+](=O)[O-] (stereo not drawn)	-10	i	6	-4	1	-1	0	1.4	3.1	-0.4
COc1ccc(S(=O)(=O)Oc2ccccc2C(=S)N2CCOCC2)cc1	-9	i	2	2	.	-2	-7	-0.9	-2.8	-1.0
CCOC(=O)Cc1csc(NC(=O)Nc2cccc(Cl)c2)n1	1	.	16	?	-2	-23	-25	-7.5	4.7	1.0
CC1CCN(S(=O)(=O)Cc2ccccc2Cl)CC1	-9	.	-6	2	3	.	.	.	0.9	.
CC1C(=O)N2CCCc3cc(NC(=O)C(=O)NCCCc4ccccc4)cc1c32 (stereo not drawn)	-8	i	8	0	-8	-8	-13	1.3	3.9	1.5
CC(=O)Nc1ccc(NC(=O)C(C)OC(=O)c2ccc(S(=O)(=O)N3CCCCCC3)cc2)cc1 (stereo not drawn)	-1	i	.	.	0	5	8	-2.6	.	-2.6
COC(=O)c1ccc(N=NNc2cccc(Br)c2)cc1	-14	i	.	.	-7	18	15	0.9	.	11
COc1ccc(S(=O)(=O)NN(C)C(=O)c2nn(-c3ccccc3)ccc2=O)cc1	1	i	-12	-2	-1	6	3	-0.4	-2.5	-3.4
Cc1cccc(OCC(=O)N/N=C\c2cn(C)c3ccccc23)c1	-1	i	1	-30	-3	-1	2	2.1	2.7	0.0
CCCCN(C)C(=O)C1CCC(=O)N(c2cc(OC)c(OC)c(OC)c2)C1c1ccc(OC)cc1 (stereo not drawn)	-12	.	4	2	0	.	.	.	3.1	.
O=C(CN1C(=O)S/C(=C\c2cccs2)C1=O)Nc1ccc(O)c(C(=O)O)c1	1	i	-7	-3	4	17	16	3.2	-2.2	-1.0
CCOC(=O)N1CCN(S(=O)(=O)c2ccc(F)cc2)CC1	-19	i	12	-22	0	-2	2	-2.0	0.1	0.7
COc1ccc(CNCc2ccncc2)c(OC)c1	-9	i	3	-1	-3	2	-1	12	5.9	-0.5

Part of the list above, limited to Ecoli rRNA inh OD600, Ecoli rRNA inh and Ecoli rRNA inh RFP.
| canonical_smiles | Ecoli rRNA inh OD600 | Ecoli rRNA inh | Ecoli rRNA inh RFP |
| --- | --- | --- | --- |
| CC(=O)Nc1ccc(NC(=O)C(C)OC(=O)c2ccc(S(=O)(=O)N3CCCCCC3)cc2)cc1 (stereo not drawn) | 8 | 5 | -2.6 |
| COC(=O)c1ccc(N=NNc2cccc(Br)c2)cc1 | 15 | 18 | 0.9 |
